# LT uptake inh – blocks cellular internalization of anthrax lethal toxin | Cells, anthrax lethal toxin internalization, FRET ratio (460/530) | Potency, µM (top dose mostly 40 µM), for the others: top-dose activity change, negative = inhibition, usual class: inhibitors | actives 0.67% (n = 70,000) | AID 912; active = well fitted falling ratio curve with the 530 nm signal flat; inconclusive = other ratio curves, or a change in one channel alone; inactive = flat curves in the ratio and both channels; the % refers to the ratio; note: % is set by controls: 0 for no effect and ±100 for the full control effect; nearly all actives have a fitted effect of over 50% in size; tested in ME-180 cells; beta-lactamase reporter
# SmPrx2 inh – inhibitors of Schistosoma mansoni peroxiredoxin 2. AID 448. Potency, µM. S. mansoni Prx2 activity coupled to TGR/GSH (TGR is thioredoxin glutathione reductase), NADPH fluorescence loss, qHTS; some inactives read as strong as hits. actives 0.07% (n = 65,000); active means full or partial inhibition curve with a strong effect at the top dose; inconclusive means weaker partial or single-point curve; inactive means no accepted curve; note: series up to 57 µM; many of its hits are not listed in these tables
#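 Purified S. mansoni TGR and Prx2 in pH 7.4 phosphate buffer with EDTA and Tween-20 were preincubated with compounds for 15 min. Further NADPH/GSH was added, then a 2.5 mM H2O2 aliquot initiated turnover, followed kinetically by NADPH fluorescence.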
# The depositor's hits bear a star; ? = inconclusive; . = not tested or not shown; [ ] = dose if it differs, or a comment. Potency is the fitted concentration of half-maximal effect. Some of the compounds tested. The share of hits here may be higher or lower than overall.
# Each structure is followed by: LT uptake inh	SmPrx2 inh
CCCOc1ccc(/C(O)=C2\C(=O)C(=O)N(CCCOC)C23C(=O)N(C)c2ccccc23)cc1 (centres undefined)
 : -11.7%	>57
CCOC(=O)c1ccc(Nc2nc(C)cc(C)c2C#N)cc1
 : 9.7%	>57
CCCn1c(=O)c2ccccc2n2c(SCc3nnc(-c4ccccc4Br)o3)nnc12
 : -0.8%	>57
O=C(O)C1CC=CCC1C(=O)Nc1cccc(C(=O)N2CCCCC2)c1 (centres undefined)
 : ?	>57
O=C(O)c1oc2ccc(Br)cc2c1-n1cccc1
 : -11.6%	>57
O=C(Nc1nc2c(s1)CCCC2)C1COc2ccccc2O1 (centres undefined)
 : -23.2%	>57
O=C(O)c1cc(C(=O)O)nc(C(=O)O)c1
 : -11.7%[8 µM]	>57
Fc1ccc2c(c1)nnn2C1CCN(Cc2nnnn2CCc2ccccc2)CC1
 : -2.0%	>57
O=C(c1ccc(CS(=O)(=O)c2ccc(Br)cc2)o1)N1CCN(c2ccccn2)CC1
 : ?	>57
O=S(=O)(Nc1ccc(S(=O)(=O)N2CCCCC2)cc1)c1ccc(Br)s1
 : -12.1%	>57
NC(CC(=O)OC1CCCCC1)C(=O)OC1CCCCC1 (centres undefined)
 : 1.4%	>57
O=c1[nH]c2ccccc2c2ccccc12
 : -1.7%	>57
CCSc1nc2ccccc2n1CC(=O)OC
 : -16.7%	>57
COC(=O)CN1C(=O)C2(C(C#N)=C(N)Oc3n[nH]c(-c4cccs4)c32)c2ccccc21 (centres undefined)
 : 11.9%	>57
O=S(=O)(NC1CCCCC1)c1cccc(-c2nnc(-c3ccccc3)o2)c1
 : ?	.
O=S(=O)(c1ccc(Nc2ccc3c(c2)OCO3)nc1)N1CCOCC1
 : 9.9%	>57
CCOC(=O)N/N=C1/C[C@@H](O)[C@@H](O)[C@@H]2[C@@H]3C(=O)N(Cc4ccccc4)C(=O)[C@H]3CC[C@H]12
 : -2.5%[8 µM]	.
c1ccc(OCCCn2nnc(-c3ccc(N4CCOCC4)cc3)n2)cc1
 : 1.7%	>57
CCNC(=O)c1nc[nH]c1C(=O)NCC
 : 0.1%	>57
Cn1c(N)c(C(=O)c2cc(-c3ccccn3)nc3ccccc23)c(=O)[nH]c1=O
 : 3.1%	>57

# Each structure is followed by: LT uptake inh	SmPrx2 inh
c1ccn2c(SCc3ccc4c(c3)OCO4)nnc2c1
 : -10.3%	>57
Cc1cc(=O)[nH]c(SCc2cc(Cl)ccc2OC(F)F)n1
 : 1.9%	>57
O=C(O)c1ccc(CNC(=O)c2ccc(Br)o2)cc1
 : 1.2%	>57
COc1ccc(C(=O)Cn2c(Br)nc3c2c(=O)n(C)c(=O)n3C)cc1
 : 9.5%	>57
O=C(CSc1cccc(C(F)(F)F)c1)NC(=O)NCc1ccco1
 : .	>57
COCCOc1nc2ccccc2nc1C
 : ?	>57
COc1ccc2sc(NC(C)=O)nc2c1
 : -1.9%	>57
CCOC(=O)N1CCN(Cc2cc(=O)oc3ccc(Cl)cc23)CC1
 : -9.9%	>57
O=C1OCC(Cn2c3ccccc3c3ccccc32)O1 (centres undefined)
 : ?	.
COc1ccc(CC(=O)Nc2c3c(nn2-c2cccc(C)c2C)CS(=O)C3)cc1 (centres undefined)
 : 12.6%	>57
COc1cc2c(=O)n(CCCN3CCOCC3)c(=S)[nH]c2c(OC)c1OC
 : -0.6%	>57
COc1cc2c(cc1OC)C(C(=O)Nc1ccc3c(c1)OCCO3)C(c1cccnc1)N(C)C2=O (centres undefined)
 : -4.7%	>57
Cc1cc(C)n(-c2ccc(C(=O)Oc3ccc4c(c3)OCO4)cc2)n1
 : -16.7%	>57
c1nc(N2CCOCC2)c2sc3nc(N4CCOCC4)c4c(c3c2n1)CCCC4
 : 2.1%	>57
Cc1nn(-c2ccccc2)c(Oc2ccc(F)cc2)c1/C=N/n1cnnc1
 : -4.8%	>57
Cc1oc(-c2ccc(Cl)cc2)nc1CN1CCC(C(=O)N2CCN(c3ccccn3)CC2)CC1
 : -12.2%	>57
O=C(CN(CCN1CCOCC1)C(=O)Cn1nnc(-c2ccc(F)cc2)n1)NC1CCCCC1
 : 9.7%	>57
CC/C=C\CC[C@H](O)C1=CCCCC1=O
 : -4.4%[8 µM]	.
Cn1c(=O)[nH]c(=O)c2c1nc(N1CCCCCC1)n2CC(=O)c1ccccc1
 : -10.7%	>57
CCN(CC)P1(=O)OC(c2cc(OC)c(OC)c(OC)c2)=Nc2c1c(C)nn2-c1ccccc1 (centres undefined)
 : -6.8%	>57

# Each structure is followed by: LT uptake inh	SmPrx2 inh
CC(Sc1nnnn1C)C(=O)Nc1ccc(Oc2ccccc2)cc1 (centres undefined)
 : -11.8%	>57
C=Cc1ccc(C=C)cc1
 : 10.2%	.
CCNCCCNCCCCNCCCNCC
 : -4.0%	>57
Cc1sc2ncnc(OCC(=O)N3CCN(S(=O)(=O)c4ccc(Cl)cc4)CC3)c2c1C
 : -25.8%	>57
Cc1nc(=O)cc(-c2ccccc2)n1-c1ccccc1
 : -1.6%	>57
CC1CCCCN1S(=O)(=O)c1ccc(S(=O)(=O)N2CCN(c3ccc(F)cc3)CC2)cc1 (centres undefined)
 : -3.4%	>57
CC(C)NC(=O)N1CC[C@@]2(CCCNC2)C1
 : 8.4%	>57
Cc1cc(-c2ccccc2)nc(N2CCC(C(=O)NC(C)C)CC2)n1
 : 1.0%	>57
COc1ccc(-c2nc(CN3CCC(C(=O)NC(C)C)CC3)c(C)o2)cc1OC
 : -3.5%	>57
CN(C)C(=O)Nc1cccc(C(F)(F)F)c1
 : ?	.
O=[N+]([O-])c1ccc(CSc2ncnc3c2ncn3[C@@H]2O[C@@H](CO)[C@@H](O)[C@H]2O)cc1
 : 5.1%	>57
O=C(Cn1c(=O)n(-c2cccc(Cl)c2)c(=O)n1CC(=O)N1CCCCC1)N1CCCCC1
 : ?	>57
Cc1ccc2nc3c(cc2c1)c(NC(=O)c1cccnc1)nn3C
 : -18.9%	>57
CCOC(=O)N1CCN(C(=O)CSc2nnc(-c3cccs3)o2)CC1
 : 4.6%	>57
O=C(Nc1cccc(F)c1)N1CC2(CCNCC2)C1
 : 7.9%	>57
Cn1c(=O)c(-c2cc(F)cc(F)c2)nc2cnc(Oc3cccc(Cl)c3)nc21
 : ?	>57
O=S(=O)(c1ccc(F)cc1)N1CN(Cc2ccco2)c2nc3ccccc3nc21
 : -0.8%	>57
O=C(CSc1ncnc2ccccc12)Nc1ccc(N2CCOCC2)cc1
 : ?	>57
CCc1cccc(C)c1NC(=O)C1=C(C(=O)O)CCCC1
 : -4.1%	>57
O=C(Nc1ccccc1C(=O)NCc1ccco1)c1ccco1
 : -8.6%	>57

# Each structure is followed by: LT uptake inh	SmPrx2 inh
CSc1ccccc1NC(=O)CSc1nnnn1-c1ccccc1SC
 : ?	>57
C=CCOc1c(Br)cc(CNn2nnnc2N)cc1OC
 : -7.3%	>57
CCN1CCN(C(=O)CN(c2ccc(C)cc2)S(C)(=O)=O)CC1
 : -6.0%	>57
COc1ccc(C(c2nnnn2Cc2cccs2)N2CCN(c3ccccc3)CC2)cc1OC (centres undefined)
 : ?	>57
COc1cccc(-c2nnc(SCC(=O)OC(C)C)n2Cc2ccco2)c1
 : .	>57
COC(=O)c1ccc(COC(=O)c2ccc(-n3cnnn3)cc2)o1
 : 7.1%	>57
O=C(CCNS(=O)(=O)c1cccc2nsnc12)N1CC(=O)N(CCc2ccccc2)C(=O)C1
 : -4.2%	>57
O=[As](O)(O)c1ccc(N=Nc2ccc(O)cc2)cc1
 : 3.2%[8 µM]	?
CCCCCCn1c(-c2ccco2)nc2oc3cc(OC)ccc3c(=O)c2c1=O
 : ?	>57
COc1ccccc1-n1c(SC)nc(O)cc1=O
 : -12.2%	>57
c1ccc(Nc2nc(-c3ccc4c(c3)OCO4)nc3ccccc23)cc1
 : ?	>57
COc1ccc2c(c1)C1(Nc3ccccc3C(=O)N1c1ccccc1)C(=O)N2 (centres undefined)
 : -2.6%	.
O=C(CN1CCOCC1)Nc1nc(-c2ccc3c(c2)CCN3S(=O)(=O)c2ccccc2)cs1
 : ?	>57
CC(C)n1nnnc1SCC(=O)N1CCOCC1
 : ?	>57
CN(C)c1nc(OCCNC(=O)COc2ccc(Cl)cc2Cl)nc(N2CCCCC2)n1
 : ?	>57
O=C(O)c1cccc(S(=O)(=O)N2CCSCC2)c1
 : -16.6%	>57
CC(C)(C)CC(C)(C)c1ccc(OCOCCOCCO)c(Cc2cc(C(C)(C)CC(C)(C)C)cc(Cc3cc(C(C)(C)CC(C)(C)C)ccc3OCOCCOCCO)c2OCOCCOCCO)c1
 : ?	>57
O=C1c2sc3nc4c(c(=O)n3c2C(=O)N1c1ccccc1)CCC4
 : -21.1%	>57
O=c1c(CCc2ccccc2)nc2cnc(N3CCOCC3)nc2n1-c1ccccc1
 : 7.5%	>57
N#Cc1ccccc1-c1ccc2ncnc(N3CCNCC3)c2c1
 : -6.9%	>57

# Each structure is followed by: LT uptake inh	SmPrx2 inh
OCCNCCCCCOc1ccc(F)cc1
 : -9.6%	>57
Cc1ccc(S(=O)(=O)NCCCC(=O)C=[N+]=[N-])cc1
 : -6.3%	>57
Cc1ccccc1NC(=O)c1cc(S(=O)(=O)N2CCOCC2)ccc1F
 : -20.4%	>57
CS(=O)(=O)N(CC(=O)NCc1cccnc1)Cc1ccc(Cl)cc1
 : -3.5%	>57
CN(C)c1ccc(-c2nn3c(-c4cccnc4)nnc3s2)cc1
 : 1.3%	>57
Cc1cc(C)c2nc(N3CCC(C(=O)N4CCN(c5ncccn5)CC4)CC3)sc2c1
 : 12.7%	>57
Cc1ccc(OCCOCCn2ccnc2)c(Br)c1
 : -7.6%	.
Cc1ccc(S(=O)(=O)N2CCCC(C(=O)N3CCC4(CC3)OCCO4)C2)cc1 (centres undefined)
 : 9.7%	>57
COc1ccc(NC(=O)c2ccc(S(=O)(=O)N3CCOCC3)cc2)c(OC)c1
 : 2.6%	>57
COC(=O)c1cc(OC)c(OC)cc1NC(=O)c1c(C)noc1C
 : ?	>57
COC(=O)c1cn(C(C)C(=O)NCc2ccco2)c2ccccc12 (centres undefined)
 : 1.6%	>57
Cc1cc(C)nc(N2CCCC(C(=O)NCCc3ccccc3F)C2)n1 (centres undefined)
 : 4.8%	>57
O=C(c1cc2c(=O)oc3ccccc3c2s1)N1CCN(c2ccccn2)CC1
 : -7.9%	>57
c1ccc(Cn2nnnc2C(c2cccnc2)N2CCN(c3ccccc3)CC2)cc1 (centres undefined)
 : -5.9%	>57
c1ccc(OCc2nn3c(-c4n[nH]c5c4CCC5)nnc3s2)cc1
 : -8.0%	>57
COc1cccc(C2C(C(=O)c3ccc(C)o3)=C(O)C(=O)N2CCCN(C)C)c1 (centres undefined)
 : ?	.
O=C(CCCNS(=O)(=O)c1cccs1)N1CCN(c2ccc(F)cc2)CC1
 : -7.5%	>57
Cn1c(=O)oc2cc(S(=O)(=O)N3CCC(N4CCCCC4)CC3)ccc21
 : 8.5%	>57
CCc1nc2ccccc2n(CCOCCOCCn2c(=O)c(CC)nc3ccccc32)c1=O
 : ?	>57
CCN(CC)CCOC(=O)[C@@H](c1ccccc1)C1CCCCC1
 : ?	>57

# In a second layout: results already given.
CC1CCCCN1S(=O)(=O)c1ccc(S(=O)(=O)N2CCN(c3ccc(F)cc3)CC2)cc1 (centres undefined)
  LT uptake inh: -3.4%
  SmPrx2 inh: >57
CC(C)NC(=O)N1CC[C@@]2(CCCNC2)C1
  LT uptake inh: 8.4%
  SmPrx2 inh: >57
Cc1cc(-c2ccccc2)nc(N2CCC(C(=O)NC(C)C)CC2)n1
  LT uptake inh: 1.0%
  SmPrx2 inh: >57

# Additional entries
# Each structure is followed by: LT uptake inh	SmPrx2 inh
CC(C)C(=O)Nc1nc2c(ncn2C2CC(O)C(CO)O2)c(=O)[nH]1 (centres undefined)
 : -4.2%	>57
Cc1nc2ccccc2nc1OCC(=O)N1CCN(c2ccccc2)CC1
 : -0.9%	>57
Fc1ccc(-c2nc3n(n2)Cc2ccccc2-3)cc1
 : .	>57
Cc1ccc(N2C(=O)CSC2c2cccs2)cc1 (centres undefined)
 : 7.1%	>57
CCOCCSC1=C(C#N)C(c2cccs2)C(C(C)=O)=C(C)N1 (centres undefined)
 : -5.7%	>57
CCCCn1c(NC(=O)c2ccccc2Cl)c(C#N)c2nc3ccccc3nc21
 : ?	>57
CC(C)=CC/C=C1\CCC(C(=O)O)C(C(=O)O)C1 (centres undefined)
 : -4.6%	.
CC1=C2[C@@H]3OC(=O)[C@@H](C)[C@@H]3CC[C@]2(C)C=CC1=O
 : -13.6%[3.58 µM]	>57
CC(C)n1c(SCC(=O)N2c3ccccc3Sc3ccccc32)nc2c1c(=O)n(C)c(=O)n2C
 : ?	>57
Cc1csc(NC(=O)c2cccc(S(=O)(=O)N3CCCCC3)c2)n1
 : 5.6%	>57
O=C(Oc1ccccc1)N1CCC2(CCCN(c3ccccn3)C2)CC1
 : -7.6%	>57
Cc1cc2ccccc2n1CCNC(=O)c1ccc(S(=O)(=O)N2CCOCC2)cc1
 : -8.3%	>57
N#C/C(=C\c1ccc(O)c(O)c1)C(=O)NCCCNC(=O)/C(C#N)=C/c1ccc(O)c(O)c1
 : ?	>57
Cc1ccc(SCCC(=O)N2CCC(C(N)=O)CC2)cc1
 : 11.6%	>57
Cc1nc2ccccn2c1/C(O)=C1\C(=O)C(=O)N(CCN2CCOCC2)C1c1cccnc1 (centres undefined)
 : -7.8%	>57
COCc1nnc(NC(=O)CSc2ccccc2)s1
 : 0.4%	>57
CCOC(=O)C1CCCN(c2c(NCCCN(C)c3ccccc3)c(=O)c2=O)C1 (centres undefined)
 : ?	>57

# High-throughput results from PubChem.
